Compound activity (PubChem)
RGS16-Gao HTS = modulates binding between human RGS16 and Galphao; O15492+P09471; bead-based flow cytometry RGS16-Galphao binding, fluorescence; actives lie on both sides; binding response (% of control), % at 10 µM; actives 0.38% (n = 220,000);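 active = below 25% or above 175%, edge rows of some plates excepted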;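 note: Galphao activated by GDP with aluminum fluoride before binding; 100% = wells without compound and 0% = beads without RGS; some results beyond the cut were filed as inactive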
Target sequence (O15492 whole entry, looked up): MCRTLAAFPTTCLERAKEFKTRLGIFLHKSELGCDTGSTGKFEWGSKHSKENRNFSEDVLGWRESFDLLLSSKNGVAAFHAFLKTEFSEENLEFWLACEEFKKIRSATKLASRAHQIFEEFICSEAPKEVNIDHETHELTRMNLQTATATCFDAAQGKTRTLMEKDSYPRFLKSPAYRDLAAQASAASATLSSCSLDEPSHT
Target sequence (P09471 whole entry, looked up): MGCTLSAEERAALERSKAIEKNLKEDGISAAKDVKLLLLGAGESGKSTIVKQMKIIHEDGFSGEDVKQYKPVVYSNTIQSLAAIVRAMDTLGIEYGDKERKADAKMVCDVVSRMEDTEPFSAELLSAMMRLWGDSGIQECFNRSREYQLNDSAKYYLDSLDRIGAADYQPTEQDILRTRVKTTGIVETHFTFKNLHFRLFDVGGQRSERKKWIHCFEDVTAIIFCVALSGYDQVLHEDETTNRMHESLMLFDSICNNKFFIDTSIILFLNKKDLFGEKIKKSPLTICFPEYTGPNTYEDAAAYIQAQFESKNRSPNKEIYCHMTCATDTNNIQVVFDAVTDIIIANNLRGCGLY
GALR2 ag = agonists of human galanin receptor 2 (GALR2); O43603; GALR2-expressing cells, agonist activation read-out; activation, %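 (tested at 5 µM)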; actives 0.48% (n = 140,000);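 active = above mean plus 3 SD of all compounds, about 5% in these data, not always enough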;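 note: 0% = vehicle buffer wells and 100% = reference agonist at full effect; tested in CHO reporter cells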
Target sequence (O43603 whole entry, looked up): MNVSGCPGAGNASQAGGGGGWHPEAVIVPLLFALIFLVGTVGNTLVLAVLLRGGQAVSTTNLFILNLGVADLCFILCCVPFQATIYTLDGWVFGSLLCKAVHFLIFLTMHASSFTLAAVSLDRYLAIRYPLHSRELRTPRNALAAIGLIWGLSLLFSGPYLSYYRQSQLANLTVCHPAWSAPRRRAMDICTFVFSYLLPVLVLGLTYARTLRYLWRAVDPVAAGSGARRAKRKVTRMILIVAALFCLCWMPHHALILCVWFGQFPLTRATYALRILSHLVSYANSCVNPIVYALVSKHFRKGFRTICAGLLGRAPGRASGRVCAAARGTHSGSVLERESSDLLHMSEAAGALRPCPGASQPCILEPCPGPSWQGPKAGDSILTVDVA
Insulin prom inh = TRM-6 insulin promoter activity inhibition; inhibition, % at 2 µM; actives 0.9% (n = 130,000); AID 1273; TRM-6 cells (human fetal islet line), insulin promoter-eGFP reporter, imaging; reporter expression induced with tamoxifen;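 active = inhibition above the mean plus 3 SD, with well images judged a real hit on visual review, cut at about 60% in these data, passing the limit was not always enough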
HSV augment = HSV replication enhancement. HSV replication augmentation in cells, fold increase. maximum fold increase. actives 0.005% (n = 220,000);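 active = peak rise of 1.5-fold or more in the series; tested in PC3 cells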;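 note: first round at 10 µM; read as green reporter fluorescence; hits show the peak of a series up to 25 µM; 1 = signal of infected wells without compound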
PKD1 inh = inhibitors of human PKD1 kinase. actives 0.056% (n = 200,000). PKD1 kinase fluorescence polarization assay. inhibition, %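 (about 10 µM by stock and volumes)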. Q15139;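 active = inhibition of 50% or more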;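 note: controls were vehicle for no effect and a reference inhibitor for full effect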
Insulin prom inh cell count = also measured in Insulin prom inh; calls as there; normalized cell count, %; measured here: cell count, toxicity; reference of the scale not given here;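 cells exposed to compound for 48 h; stained nuclei by imaging scaled within each plate; lower means fewer cells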
HSV augment primary fold = further read-out of HSV augment, marked with its call; fold increase; compound at 10 µM; measured here: primary screen fold increase 10 uM; tested in PC3 cells;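 GFP signal in the first replicate; 1 = infected wells without compound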
The depositor's hits bear a star; i = inactive; · = not tested or not shown.

SMILES	RGS16-Gao HTS	GALR2 ag	Insulin prom inh	Insulin prom inh cell count	HSV augment	HSV augment primary fold	PKD1 inh
CCCOc1c(Br)cc(C(=O)NCC)cc1OC	102	-1.4	-88	86	i	0.97	-14
CCCCN(CC)CCNC(=O)c1cc2c(=O)n(C)c3ccccc3c2n1C	101	-0.4	·	·	i	0.99	15
COc1ccc(CNC(=O)CN(CC2CCCO2)C(=O)CNS(=O)(=O)c2ccc(C)cc2)cc1 (configuration not stated)	103	-1.5	-18	80	i	0.86	1
CCN(CC)C(=O)CN1C(=O)C(=O)c2ccccc21	98	·	-50	77	i	0.9	0
Cc1ccccc1NC(=S)Nc1ccc2[nH]c(=O)[nH]c2c1	100	·	·	·	i	0.91	·
COc1ccc(C(=O)NCC(=O)OCC(=O)Nc2sccc2C#N)cc1OC	92	·	·	·	i	1	-2
O=C(O)CSc1nnc(C2CC2)n1-c1ccccc1	108	-0.2	-31	32	i	0.98	-3
O=[N+]([O-])c1ccc(N2CCN(CCO)CC2)cc1NCc1ccco1	107	0.5	-67	78	i	0.95	-1
COc1ccc(S(=O)(=O)N2CCCC(C(=O)N3CCOCC3)C2)cc1C (configuration not stated)	101	0.3	16	72	i	0.93	-1
CCN(Cc1cnn(C)c1)C(=O)CC1C(=O)NCCN1Cc1cccc(OC)c1OC (configuration not stated)	100	·	·	·	i	0.94	-1
CCCCn1c(C(C)NC(=O)c2cccs2)nc2ccccc21 (configuration not stated)	91	-1.8	-85	115	i	0.92	-14
Cn1c(=O)cc(SCC(=O)N2CCOCC2)c2ccc(Cl)cc21	60	1.5	-44	256	i	1.1	-11
C=CCO/N=C/C1C(=O)CC(C)(C)CC1=O	104	-2.2	-2	81	i	1	4
COc1cc2cc(CN(Cc3cccnc3)C(=O)Nc3ccccc3)c(=O)[nH]c2cc1OC	105	·	·	·	i	1.5	6
CCCC1(CCC)NC(=O)N(CC(=O)Nc2ccccc2OC)C1=O	102	-1.5	·	·	i	0.93	2
Nc1ccc2nc[nH]c2c1	112	·	-27	114	i	1.1	-2
O=C(NC1CCCC1)c1cc2c(ccc3ccccc32)o1	63	-1.6	11	120	i	0.95	5
Cc1ccc(N2CCOCC2)c2c1C(=O)c1ccccc1C2=O	102	1.0	-159	110	i	0.65	8
c1ccc2c(c1)nc(N1CCOCC1)c1nnnn12	103	-0.8	·	·	i	0.98	-12
COCCNC(=S)NC1CC2CCCC(C1)N2Cc1ccco1 (configuration not stated)	95	-2.7	·	·	i	0.9	-7
CCCS(=O)(=O)N1CCN(Cc2ccccc2OCC)CC1	102	-0.2	-15	122	i	0.81	-5
O=C(CSc1nc2ccccc2c(=O)n1Cc1ccco1)N1CCCC1	107	·	·	·	i	0.95	1
CCCc1[nH]nc2c1C(c1ccc(O)cc1OCC)C(C#N)=C(N)O2 (configuration not stated)	97	0.1	·	·	i	0.81	-3
CCOC(=O)C1CCCN(C(=O)c2ccccc2Oc2ccccc2)C1 (configuration not stated)	114	-2.8	-17	86	i	0.84	-6
COc1ccc(-c2ccnc3nc(-n4cccc4)nn23)cc1	126	-1.4	-35	103	i	0.98	-13

In another format: results already given.
| SMILES | RGS16-Gao HTS | GALR2 ag | Insulin prom inh | Insulin prom inh cell count | HSV augment | HSV augment primary fold | PKD1 inh |
| --- | --- | --- | --- | --- | --- | --- | --- |
| CCCCN(CC)CCNC(=O)c1cc2c(=O)n(C)c3ccccc3c2n1C | 101 | -0.4 | · | · | i | 0.99 | 15 |
| COc1ccc(CNC(=O)CN(CC2CCCO2)C(=O)CNS(=O)(=O)c2ccc(C)cc2)cc1 (configuration not stated) | 103 | -1.5 | -18 | 80 | i | 0.86 | 1 |
| CCN(CC)C(=O)CN1C(=O)C(=O)c2ccccc21 | 98 | · | -50 | 77 | i | 0.9 | 0 |

More compounds follow.
SMILES	RGS16-Gao HTS	GALR2 ag	Insulin prom inh	Insulin prom inh cell count	HSV augment	HSV augment primary fold	PKD1 inh
Cn1c(=O)c2c3c(sc2n2c(SCc4ccccc4)nnc12)CCCC3	104	-0.6	-6	116	i	0.98	1
COc1ccc(-c2cn3cc(Br)cnc3n2)cc1	101	·	28	101	i	0.99	-3
Cc1cc(N2CCOCC2)nc2ccccc12	97	-3.5	21	150	i	1	-3
CC1CCCC(C)N1S(=O)(=O)c1ccc(NC(=O)CCn2cnc3ccccc3c2=O)cc1 (configuration not stated)	69	-0.4	-21	89	i	0.91	-2
O=C(O)c1ccc(CNCc2ccc(F)cc2)cc1	102	·	·	·	i	0.97	-12
CC(C)(C)n1nc2c(c1NC(=O)c1ccc(S(=O)(=O)N3CCCC3)cc1)CSC2	105	-0.9	46	43	i	0.98	0
CCOc1ccc(NC(=O)Cc2cccc3ccccc23)c([N+](=O)[O-])c1	101	-0.9	20	120	i	1	-11
Cc1ccc(S(=O)(=O)N2CCNC(=O)CC2)cc1	102	·	40	90	i	0.94	-1
Cc1ccc2c(c1)nnn2C1CCN(S(=O)(=O)c2ccc(C(=O)O)cc2)CC1	105	·	·	·	i	0.6	-4
O=C(CNC(=O)c1ccc(Cl)cc1)OCC(=O)c1ccc2c(c1)OCCO2	108	-1.5	5	136	i	0.98	-2
CC1(C)Cc2c(sc3nc(N/N=C/c4ccccc4)[nH]c(=O)c23)CO1	100	0.3	-67	148	i	0.55	-6
Cc1ccc(N=C2CCCN2Cc2ccccc2)c(C#N)c1	100	-1.0	-266	48	i	0.87	1
CN1CCN(C2=C(Cl)C(=O)N(C3CCCCC3)C2=O)CC1	103	-0.8	·	·	i	0.75	-6
O=C(CNS(=O)(=O)c1ccc(Br)s1)NC1CCCc2ccccc21 (configuration not stated)	101	-2.3	43	88	i	0.93	-5
COc1ccc2c(-c3ccccc3)cc(=O)[nH]c2c1	109	-2.7	-13	102	i	1	4
COc1ccc(N(CCC(=O)O)S(=O)(=O)c2ccc(C)cc2C)cc1	108	·	·	·	i	1.1	7
COc1cc(OC)cc(-c2cc(N3C(=O)Nc4ccccc4N3O)n[nH]2)c1	102	-0.1	·	·	i	1	-3
COC(=O)CSc1ccc(-c2nc3ccc(C)cc3[nH]2)cn1	101	-3.9	-24	97	i	0.97	1
CCc1cccc(C)c1NC(=S)NCc1ccc2[nH]c(C)cc2c1	91	-0.8	71*	85*	i	0.85	-10
COc1ccc(C(=O)Oc2ccc3c(c2)OCO3)cc1OC	99	-5.0	·	·	i	1.1	9
COc1cccc(CCc2nnc(CCC(=O)N3CCN(Cc4ccccn4)CC3)o2)c1	96	·	·	·	i	0.93	-7
CCCCCSc1ncccc1C(=O)O	100	·	·	·	i	1	·
CC(C)N(C#N)c1nc(N2CCOCC2)nc(N2CCOCC2)n1	115	0.1	21	130	i	1	-4
CN(C)S(=O)(=O)c1ccc(NC(=O)c2c(F)cccc2Cl)cc1	105	-1.7	26	66	i	0.86	1
Nc1nc2ccccc2n1/N=C/c1cccnc1	98	-0.9	-25	132	i	0.85	69*

Next structures.
SMILES	RGS16-Gao HTS	GALR2 ag	Insulin prom inh	Insulin prom inh cell count	HSV augment	HSV augment primary fold	PKD1 inh
S=C(NCCN1CCOCC1)NC1CCCCC1	79	·	·	·	i	0.97	·
O=C(NN1C(=O)c2cc(Br)ccc2NC1c1ccccc1Cl)c1ccncc1 (configuration not stated)	118	-0.5	-14	57	i	1	-1
CC(C)CN(C)C(=O)CC1C(=O)NCCN1C (configuration not stated)	97	·	33	112	i	0.91	4
COc1cccc(-c2nn(-c3ccccc3)cc2C(=O)O)c1	98	-0.1	15	88	i	1	-4
CCN(C#N)c1nc(NC(C)C)nc(NC(C)(C)C)n1	99	·	·	·	i	0.84	-6
CCc1nnc(NC(=O)c2cc(-c3ccccc3)nn2-c2ccccc2)s1	80	-3.0	-28	120	i	0.99	-7
CCCN(C(=O)/C=C/c1ccco1)c1c(N)n(Cc2ccccc2)c(=O)[nH]c1=O	93	·	·	·	i	1.1	0
CNC(=S)NNC(=O)CNc1ccc(C)c(Cl)c1	98	·	29	135	·	·	-15
O=[N+]([O-])c1ccc(C2=NN(CCO)C(=Nc3ccc(OC(F)(F)F)cc3)SC2)cc1	100	·	·	·	i	1.1	·
CCOC(=O)c1cnc2c(cnn2C)c1NCCC#N	95	-1.1	-31	69	i	0.97	10
CN(c1ccc(C(=O)NCc2cccnc2)cc1)S(C)(=O)=O	88	-3.7	13	105	i	1	-9
COCCn1c(C)cc(C(=O)CSc2nncn2-c2ccccc2)c1C	104	-2.2	·	·	i	1	-2
CCN(CC)S(=O)(=O)c1ccc(NC(=O)Cn2cnc3ccccc3c2=O)cc1	101	-1.2	62	84	i	0.93	-13
CSc1nnc(-c2ccc(Br)s2)n1C	102	·	·	·	i	1	·
Cc1cc(C(=O)Nc2c(C)n(C)n(-c3ccccc3)c2=O)c(C)o1	96	-2.5	19	116	i	1	-10
CCO[C@H]1OC(C(=O)N2CCN(Cc3ccc4c(c3)OCO4)CC2)=C[C@@H](C2CC2)[C@@H]1CCCO	56	·	·	·	i	1	-4
C(=NCCCN1CCOCC1)c1ccc2c(c1)OCO2	183	-2.1	-19	75	i	0.96	-3
COc1ccc(/C=C(\C#N)C(=O)ONC2=NCCCCC2)cc1	100	·	·	·	i	0.93	-6
O=C(CCSc1ccccc1)NC(=O)COC(=O)C1CCCCC1	103	·	·	·	i	0.93	4
COc1ccccc1/C=C/C(C)=O	96	0.0	23	178	i	0.92	7
S=C1NC2=C(C(c3ccc(Br)cc3)N1)N1CCC2CC1 (configuration not stated)	111	-0.8	20	128	i	1	2
CN(C(=O)c1c(Br)cnn1C)C12CC3CC(CC(C3)C1)C2	100	-0.5	39	102	i	1	-5
Cc1nc2ccc(NC(=O)c3ccc(Cl)nc3)cc2s1	101	·	·	·	i	0.97	·
CCC(CC)C(=O)c1c[nH]c(C(=O)NCCOC)c1	99	·	-9	76	i	0.9	3
O=S(=O)(CCc1nnc(-c2ccccc2)o1)c1ccc2ccccc2c1	97	0.2	·	·	i	0.85	1

Next part:
SMILES	RGS16-Gao HTS	GALR2 ag	Insulin prom inh	Insulin prom inh cell count	HSV augment	HSV augment primary fold	PKD1 inh
Cc1c(N=C2N=C(NC(=O)Nc3ccc(Cl)cc3)c3ccccc32)c(=O)n(-c2ccccc2)n1C	116	·	·	·	i	1.1	-8
O=C(CN1C(=O)c2cccc3cccc(c23)C1=O)N1CCOCC1	100	·	8	119	i	0.93	0
O=C(COc1ccc(Cl)cc1)Nc1nc(-c2ccc(S(=O)(=O)N3CCOCC3)cc2)cs1	33	-2.3	-28	79	i	1.1	-7
CCOC(=O)c1c(-c2ccccc2)csc1NC(=O)c1ccc(N2C(=O)CCC2=O)cc1	97	-1.6	30	111	i	0.96	0
Nc1ccccc1C(=O)NCc1ccccc1	109	-1.3	-17	89	i	1.1	1
CCOC(CNC(=O)c1cccc([N+](=O)[O-])c1)OCC	98	·	·	·	i	0.97	·
Cc1ccc(C)n1-c1ccc(C(=O)NN)s1	94	·	-45	90	i	0.94	-1
O=c1c2ccccc2c(-c2ccc(Cl)cc2)nn1-c1ccccc1	104	-0.8	·	·	i	0.86	-11
Cc1ccc(-n2c(O)c(C=Nc3ccc4c(c3)OCO4)c3ccccc3c2=O)cc1C	93	-3.1	·	·	i	1.3	3
COc1ccc(NC(=O)c2cccnc2C(=O)O)c(OC)c1	109	-1.5	33	115	i	1	2
CC(=O)Nc1ccc(S(=O)(=O)NNC(=O)COc2ccc(Cl)cc2Cl)cc1	90	·	·	·	i	1	·
CN1CCN(C(=O)C2=C[C@H](C3CCCCC3)C[C@H](OCc3ccc(CO)cc3)O2)CC1	97	·	·	·	i	0.83	11
O=C(NCCn1cccn1)c1ccc(OC2CCN(C(=O)C3CC3)CC2)cc1	115	·	10	84	i	0.94	0
CCOC(=O)c1ccc(NC(=S)NCCc2ccccc2)cc1	102	-2.6	20	101	i	1.1	6
COCCN(CCOC)C(=S)Nc1ccccc1Cl	109	·	33	103	i	0.92	2
CCCCN1C(=O)C(=O)N(CC(=O)Nc2cc(OCC)c(N3CCOCC3)cc2OCC)C1=O	101	·	·	·	i	1.1	-3
O=C1OC2CC3CC1CC(O)(C3)C2 (configuration not stated)	95	-2.2	86*	101*	i	0.96	-3
CC(Oc1cc(C(F)(F)F)cc(C(F)(F)F)c1)C(=O)NC(N)=O (configuration not stated)	136	-2.2	-24	137	i	0.89	0

Fetched one by one from the list above:
SMILES	RGS16-Gao HTS	GALR2 ag	Insulin prom inh	Insulin prom inh cell count	HSV augment	HSV augment primary fold	PKD1 inh
CC(Oc1cc(C(F)(F)F)cc(C(F)(F)F)c1)C(=O)NC(N)=O (configuration not stated)	136	-2.2	-24	137	i	0.89	0
CCOC(=O)c1ccc(NC(=S)NCCc2ccccc2)cc1	102	-2.6	20	101	i	1.1	6
CC(=O)Nc1ccc(S(=O)(=O)NNC(=O)COc2ccc(Cl)cc2Cl)cc1	90	·	·	·	i	1	·
CCOC(CNC(=O)c1cccc([N+](=O)[O-])c1)OCC	98	·	·	·	i	0.97	·
O=C(COc1ccc(Cl)cc1)Nc1nc(-c2ccc(S(=O)(=O)N3CCOCC3)cc2)cs1	33	-2.3	-28	79	i	1.1	-7

Compounds as they come; about 1.3% have a hit in one of these screens.
